KCNH2 3.1 inh: KCNH2 3.1 (human) potassium channel inhibition; activity change, % (tested at about 1.8 µM); 0.95% of 340,000 active; U2OS KCNH2 3.1, thallium flux FluxOr; active compounds read low;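 active = maximum activity change below -70%; inconclusive = maximum activity change from -70% to -50%; inactive = maximum activity change above -50%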;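 note: thallium influx rate constant from kinetic fluorescence after stimulation buffer; % is set by controls: 0 for no effect and ±100 for the full control effect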
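Kinetic fluorescence (2 min after stimulation buffer) measures Tl+ influx through KCNH2 3.1 expressed by viral transduction in U2OS cells; the rate constant is normalized against DMSO controls serving as positive and negative references.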
Menin-MLL TR inh: displaces Texas Red mutant MLL peptide from human menin; Menin + Texas Red MLL mutant peptide, fluorescence polarization; Potency, µM (top dose mostly 61.6 µM), for inactives: top-dose FP activity change, negative = inhibition, usual class: inhibitors; 0.23% of 270,000 active; active = well fitted inhibition curve with a large enough effect in the polarisation, with a control signal flat, not every such curve was filed as active; inconclusive = small, poorly fitted or top-dose-only effect, or effect the other way, or a change in a side signal; inactive = no such curve, though single readings can be large or run the other way; the % refers to the polarisation; note: potency is the fitted concentration of half-maximal effect; % of control where 0% means no effect; many of its hits are not listed in these tables
MBNL1-CUG inh: MBNL1-poly(CUG) RNA binding inhibition. 0.036% of 280,000 active. AID 2675. Potency, µM (top dose mostly 57.5 µM), without a hit: top-dose activity change, negative = inhibition, most hits filed as inhibitors. TR-FRET MBNL1-His/biotin-(CUG)12 binding, 665/545 ratio; active = well fitted inhibition curve with a large enough effect in the signal ratio, with a control signal flat, not every such curve was filed as active; inconclusive = small, poorly fitted or top-dose-only effect, or effect the other way, or a change in a side signal; inactive = no such curve, though single readings can be large or run the other way; the % refers to the signal ratio; note: potency is the fitted concentration of half-maximal effect; % is set by controls: 0 for no effect and ±100 for the full control effect
Target sequence (Q9NR56 whole entry, looked up): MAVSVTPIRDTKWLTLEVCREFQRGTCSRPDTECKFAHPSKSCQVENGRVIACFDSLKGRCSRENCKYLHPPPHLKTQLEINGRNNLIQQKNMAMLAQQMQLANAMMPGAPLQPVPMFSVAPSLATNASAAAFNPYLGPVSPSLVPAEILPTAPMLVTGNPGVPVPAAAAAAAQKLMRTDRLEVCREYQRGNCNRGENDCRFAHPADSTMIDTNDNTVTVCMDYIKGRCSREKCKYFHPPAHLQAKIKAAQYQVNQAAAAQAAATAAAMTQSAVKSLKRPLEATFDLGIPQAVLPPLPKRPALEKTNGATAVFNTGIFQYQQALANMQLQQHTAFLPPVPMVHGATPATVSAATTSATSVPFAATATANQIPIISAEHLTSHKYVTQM
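TR-FRET between His-tagged MBNL1 and biotin-(CUG)12 RNA, detected with Tb anti-His antibody (0.055 ng/ul) and streptavidin-XL665 (5 nM), 60 min at room temperature. Compounds titrated 92 nM to 58 uM; 665/545 nm ratio normalized to buffer and complex controls.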
Rab9 prom act: activates the Rab9 promoter | 2.8% of 320,000 active | Potency, µM (series often up to 9.22 µM), for inactives: at the top dose activation, negative = inhibition, actives largely listed as activators | Huh7 Rab9 promoter-luciferase reporter, luminescence, 24 h; note: potency is the fitted concentration of half-maximal effect; % of control where 0% means no effect; nearly all actives have a fitted effect of over 60% in size
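Quantitative HTS format; Huh7 Rab9-luciferase reporter cells (1500/well) receive compound 2 h post-plating, incubate 24 h at 37 °C, then get luciferase reagent for 10 min before luminescence reading.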
FLuc counter: counter-screen for miR-21 project: firefly luciferase inhibitors or activators | AID 588342 | P08659 | Potency, µM (series often up to 57.5 µM), inactives show at the highest dose activity change, negative = inhibition, usual class: inhibitors | purified FLuc, Km substrates, luminescence inhibition | 6.9% of 360,000 active;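 note: potency is the fitted concentration of half-maximal effect; plate controls were vehicle for no effect and reference inhibitor for full effect; nearly all actives have a fitted effect of over 55% in size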
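Biochemical qHTS of compounds, final roughly 60 µM downward over six points, against 10 nM purified firefly luciferase using Km concentrations of substrates (10 uM D-luciferin, 10 uM ATP) in Tris acetate pH 7.5 buffer; luminescence output.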
NPC1 prom act: NPC1 promoter activation | Huh7 NPC1 promoter luciferase reporter, 24 h | Potency, µM (series often up to 9.22 µM), for the others: at the highest dose activation, hits mostly activators | 2.4% of 320,000 active | AID 485313;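 note: potency is the fitted concentration of half-maximal effect; % of control where 0% means no effect; nearly all actives have a fitted effect of over 60% in size; reporter is driven by a mutant NPC1 promoter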
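Stable NPC1-promoter luciferase Huh7 line; cpd (DMSO) 24 h, 37 °C, 5% CO2; Amplite luciferase reagent 10 min RT; luminescence readout. qHTS format.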
ELG1 repair inh: inhibitors of ELG1-dependent DNA repair in HEK293T cells; HEK293T ELG1-luciferase reporter, luminescence, 16 h; DNA damage induced by 5-fluorouridine; Potency, µM (top dose mostly 46.1 µM), without a hit: top-dose activity change, negative = inhibition, hits mostly inhibitors; 2.3% of 330,000 active; AID 504467; note: potency is the fitted concentration of half-maximal effect; % is set by controls: 0 for no effect and ±100 for the full control effect; nearly all actives have a fitted effect of over 55% in size
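Quantitative HTS, concentration-response format. 2,000 cells/well co-treated with 5-fluorouridine and compound, 16 hr in 5% CO2 at 37 °C; ONE-Glo luminescence read after 30 min.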
Mito fusion yeast: mitochondrial division inhibition or fusion activation | Potency, µM (series often up to 46.1 µM), without a hit: at the top dose growth rescue (activation), actives largely listed as activators | S. cerevisiae fusion-defective mutant growth rescue, CellTiterGlo 48 h | AID 485298 | 0.23% of 320,000 active;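 note: potency is the fitted concentration of half-maximal effect; % of control where 0% means no effect; nearly all actives have a fitted effect of over 45% in size; temperature-sensitive fusion mutants such as fzo1-1 at 37 °C on non-fermentable ethanol glycerol medium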
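Read-out: ATP-based luminescence (CellTiterGlo, 10 min ambient) reporting growth of fusion-defective ts yeast after 48 hours at 37C on glycerol/ethanol YPEG medium in the presence of compound.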
The depositor's hits bear a star; u = inconclusive; x = not tested or not shown; & = joins results of further samples; [ ] = remark or other dose. Unless noted, calls come from the whole dose curve; as a rule, active = well fitted curve in the direction sought with a large enough effect; inconclusive = small, poorly fitted or top-dose-only effect, or another doubt; inactive = no such curve, though single readings can be large; an effect the other way counts as inactive or inconclusive.

Every second line gives: KCNH2 3.1 inh | Menin-MLL TR inh | MBNL1-CUG inh | Rab9 prom act | FLuc counter | NPC1 prom act | ELG1 repair inh | Mito fusion yeast
> Oc1cc2c(cc1O)[C@H]1c3ccccc3CN[C@@H]1CC2
 : x | -0.7% | -8.1% | -0.3% | u | -2.2% | x | 4.8%
> CNS(=O)(=O)c1ccc(N=Cc2c(O)n(-c3cccc(C)c3)c(=O)[nH]c2=O)cc1
 : 9.9 | -2.2% | 0.0% | -4.8% | 3.0% | -4.0% | -6.5% | -0.1%
> O=C1C(Cl)=CC(=Nc2ccc(O)cc2)C=C1Cl
 : -1.2 | 12.2% | x | 3.0% | x | -6.7% | -9.7% | -2.6%
> O=C(Cc1ccccc1)N1CCN(Cc2ccccn2)CC1
 : 0.6 | 11.0% | -3.5% | -4.4% | -0.8% | -1.9% | -3.0% | -5.8%
> CCCCCCC(=O)c1c(O)n(-c2ccc(OC)cc2)c(=O)[nH]c1=O (tested in a mixture with another compound)
 : -6.7 | x | -2.0% | -6.9% | -0.3% | -0.9% | u | -11.1%
> Cc1cccnc1-n1c(C)nc2ccccc2c1=O
 : -5.4 | 7.5% | -5.5% | x | -15.6% | x | x | -0.5%
> COc1ccc(C2CN(C)CC2C(=O)c2ccc(C)cc2)cc1Cl (stereo unspecified)
 : -17.6 | 8.4% | -2.5% | -5.3% | 5.3% | -4.0% | 4.8% | 11.1%
> COC1=CC(=O)O[C@H](/C=C/c2ccc3c(c2)OCO3)C1
 : x | -1.9% | x | x | x | x | x | x
> COc1ccc(C(CN(C)C)C2(O)CCCCC2)cc1 (stereo unspecified)
 : -5.1 | 0.1% | x | -3.5%[46.1 µM] | x | -3.9%[46.1 µM] | x | 9.2%
> COc1ccc(-[n+]2c(-c3ccccc3)cc(-c3ccc(C)cc3)cc2-c2ccccc2)cc1
 : -6.1 | u | u | -53.1%[inhibitor] | 0.1% | -42.5%[inhibitor] | 3.66µM* | -25.1%
> CN1CCN(c2ccc(F)cc2N)CC1
 : 0.4 | -14.6% | x | 0.1% | -1.4% | -5.4% | 5.2% | -1.6%
> OC1/C(=C/c2ccc(F)cc2)N2CCC1CC2 (stereo unspecified)
 : -4.3 | -8.8% | 12.8% | -3.6% | 3.0% | 0.3% | -5.6% | -0.9%
> Cc1c(P(=S)(c2ccccc2)c2ccccc2)[n+]2ccccc2n1C
 : -1.4 | -5.1% | -7.9% | 0.3% | 0.2% | -6.5% | u | -1.5%
> O=C1C2CC=CCC2C(=O)N1SC(Cl)(Cl)Cl (stereo unspecified)
 : x | -1.8% | x | x | x | x | x | x
> Clc1cccc(N2CCNCC2)c1
 : 7.8 | -3.3% | x | -1.4% | 4.6% | -0.1% | 16.9% | -0.1%
> CCOC(=O)CC1=C(C(=O)OCC)C2(C(=O)Nc3ccccc32)C(C#N)=C(N)O1 (stereo unspecified)
 : -5.2 | -25.9% | 8.7% | -1.9% | -0.8% | -1.6% | 1.9% | -8.2%
> Nc1ccc2ccc3cccc[n+]3c2c1
 : 14.7 | 0.0% | u | -32.4%[inhibitor] | -1.1% | -23.1% | -7.0% | -4.0%
> CC(C)(c1ccc(O)cc1)c1ccc(O)cc1
 : -6.0 | -11.4% | -6.7% | -5.0% | u | 0.3% | 3.4% | -4.4%
> CN1C2CCC1CC(OC(=O)c1cc(Cl)cc(Cl)c1)C2 (stereo unspecified)
 : -23.9 | 1.9%&-17.9%&-0.3% | -10.3% | -14.4%[46.1 µM] | -0.8% | -5.1%[46.1 µM] | 17.4% | 3.7%&-6.2%
> Cc1cc(OCC(=O)OC(C)(C)C)c2c3c(c(=O)oc2c1)CCC3
 : -5.0 | -7.7% | 0.1% | 6.4% | 1.4% | -0.7% | 16.8% | -0.7%
> CC(=Nc1ccc2c(c1)CCC2)c1c(O)n(C2CCCCC2)c(=O)[nH]c1=O
 : 14.5 | 0.0% | 1.8% | 4.8% | 1.1% | -4.6% | -2.4% | -3.0%
> CNC(=O)Oc1cccc2c1OC(C)(C)O2
 : 3.5 | -9.4% | x | x | x | x | x | x
> CCOC(=O)C1C(=O)NC23CCCC2C1c1ccccc1O3 (stereo unspecified)
 : 2.8 | 11.6% | -8.0% | 5.1% | 0.8% | -4.6% | -0.3% | 1.5%
> CCOc1ccc(-c2cc(C)[n+](CCO)c(-c3ccc(OCC)cc3)c2)cc1
 : 4.2 | u | u | -1.5% | -0.3% | -3.1% | -23.8% | -5.9%
> Clc1ccc(CO/N=C(\Cn2ccnc2)c2ccc(Cl)cc2Cl)c(Cl)c1
 : x | -9.7% | x | x | x | x | x | x
> CNC(C)(C)Cc1ccccc1
 : 11.7 | -0.3% | x | -4.3% | 6.7% | -2.3% | 22.1% | 0.4%
> O=C1Nc2ccccc2C1Cc1nc2ccccc2c(=O)n1-c1ccccc1 (stereo unspecified)
 : -10.3 | x | u | 5.9% | -2.1% | 0.5% | -9.2% | -3.4%
> Fc1ccc([C@@H]2CCNC[C@H]2COc2ccc3c(c2)OCO3)cc1
 : -1.2&3.7&-24.1 | u | -11.9% | -43.5%[inhibitor][46.1 µM] | 0.4% | -36.1%[inhibitor][46.1 µM] | u | -80.8%&-6.3%[inhibitor]
> O=C(COc1ccc2ccccc2c1)N1CCN(Cc2c[nH]c3ccccc23)CC1
 : -9.7 | -2.8% | 24.4% | -1.5% | 2.5% | -2.7% | -9.3% | 0.0%
> OCC[n+]1c2ccccc2nc2ccc(N3CCOCC3)cc21
 : -19.0 | x | u | -3.9% | 26.9µM* | -3.2% | 23.1µM* | -8.3%
> Cc1c(F)c(F)c(COC(=O)C2C(/C=C(\Cl)C(F)(F)F)C2(C)C)c(F)c1F (stereo unspecified)
 : x | -24.3% | x | x | x | x | x | x
> CN(C)CC1Oc2ccccc2OC1(O)c1ccccc1 (stereo unspecified)
 : 4.6 | x | -7.2% | -8.8% | -14.1% | -11.2% | 0.0% | -12.8%
> c1ccc2c(c1)[nH]c1cnccc12
 : -2.2 | 10.1%&-0.6% | 15.4% | -4.1% | -8.0% | 1.2% | u | 2.1%

Entries shown so far containing sulfur (3):
Every second line gives: KCNH2 3.1 inh | Menin-MLL TR inh | MBNL1-CUG inh | Rab9 prom act | FLuc counter | NPC1 prom act | ELG1 repair inh | Mito fusion yeast
> CNS(=O)(=O)c1ccc(N=Cc2c(O)n(-c3cccc(C)c3)c(=O)[nH]c2=O)cc1
 : 9.9 | -2.2% | 0.0% | -4.8% | 3.0% | -4.0% | -6.5% | -0.1%
> Cc1c(P(=S)(c2ccccc2)c2ccccc2)[n+]2ccccc2n1C
 : -1.4 | -5.1% | -7.9% | 0.3% | 0.2% | -6.5% | u | -1.5%
> O=C1C2CC=CCC2C(=O)N1SC(Cl)(Cl)Cl (stereo unspecified)
 : x | -1.8% | x | x | x | x | x | x

Only FLuc counter, for 4 of the compounds above:
SMILES	FLuc counter
CNC(C)(C)Cc1ccccc1	6.7%
CC(C)(c1ccc(O)cc1)c1ccc(O)cc1	u
Cc1cccnc1-n1c(C)nc2ccccc2c1=O	-15.6%
Clc1cccc(N2CCNCC2)c1	4.6%

Assay outcomes: PubChem, National Center for Advancing Translational Sciences (NCATS)

A portion of the library; rates above refer to the full screens.
